RE007 growth inh = qHTS Assay for Inhibitors of the HIV-1 protein Vpr; S. pombe RE007 Vpr strain, BacTiter-Glo ATP luminescence, 24 h; control for the full effect not named in the record; Potency, µM (highest dose often 92.2 µM), without a hit: top-dose activity change, negative = less growth; hit rate 0.21% among 360,000; AID 651644, 2012; active = well fitted falling curve with a large enough effect; inconclusive = small, poorly fitted or top-dose-only effect; inactive = no such curve, though single readings can be large or run the other way;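 also: % is scaled to controls: 0 for no effect and ±100 for the full control effect; nearly all actives have a fitted effect of over 50% in size; the assay follows cell death caused by Vpr and the record does not say whether a fall means rescue or toxicity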
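Fission yeast RE007 carrying one integrated HIV-1 vpr copy, seeded at OD 0.01 in PMG+AL medium with 23 nL pinned compound. Grown 24 h at 30 degrees; viability read by BacTiter-Glo luminescence after 5 min.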
MARV entry inh = qHTS for inhibitors of binding or entry into cells for Marburg Virus; Marburg virus pseudotyped entry inhibition, cell reporter; control for the full effect not named in the record; about a third of the inactives were read at about 46 µM; Potency, µM (titrated, usually from 37.8 µM), without a hit: at the top dose activity change, negative = inhibition, usual class: inhibitors; hit rate 1.8% among 300,000; AID 540276, 2011; active = well fitted inhibition curve with a large enough effect; inconclusive = small, poorly fitted or top-dose-only effect, or effect the other way; inactive = flat fitted curve, though single readings scatter; tested in HEK293 cells; about a fifth of its hits are not listed in these tables; also: % is scaled to controls: 0 for no effect and ±100 for the full control effect; luciferase read-out
Cruzain noTriton = qHTS Assay for Promiscuous and Specific Inhibitors of Cruzain (without detergent); purified cruzain, Z-FR-AMC fluorescence, no detergent; Cruzipain (Trypanosoma cruzi), P25779; Potency, µM, for the others: max response, negative = inhibition, usual class: inhibitors; hit rate 2.3% among 200,000;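 also: plate controls were enzyme without inhibitor for no effect and buffer without enzyme for full effect; nearly all actives have a fitted effect of over 40% in size; top concentration of the series not given in the record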
Target sequence (P25779 123-467 limits assumed): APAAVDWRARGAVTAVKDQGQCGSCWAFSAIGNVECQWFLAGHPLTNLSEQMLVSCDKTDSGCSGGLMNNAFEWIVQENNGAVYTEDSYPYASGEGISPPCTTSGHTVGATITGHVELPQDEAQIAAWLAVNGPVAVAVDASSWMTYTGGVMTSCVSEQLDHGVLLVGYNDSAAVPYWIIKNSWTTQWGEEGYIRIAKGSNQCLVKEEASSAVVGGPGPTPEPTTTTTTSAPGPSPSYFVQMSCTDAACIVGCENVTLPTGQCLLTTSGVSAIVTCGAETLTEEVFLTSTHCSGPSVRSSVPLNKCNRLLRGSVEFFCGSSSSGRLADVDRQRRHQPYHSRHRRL
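Detergent-free condition (0.00005% Triton X-100) in acetate buffer pH 5.5 with DTT. 1.5 nM enzyme and compound were pre-mixed 15 min, then 2 uM Z-FR-AMC substrate added; reaction progress from fluorescence change between first and third reads (60 s).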
Lassa entry inh = qHTS for Inhibitors of binding or entry into cells for Lassa Virus | Lassa virus pseudotype entry inhibition, cell reporter; control for the full effect not named in the record | AID 540256, 2011 | hit rate 1.2% among 300,000 | Potency, µM (titrated, usually from 37.9 µM), for the others: at the highest dose activity change, negative = inhibition, most hits filed as inhibitors; active means well fitted inhibition curve with a large enough effect; inconclusive means small, poorly fitted or top-dose-only effect, or effect the other way; inactive means flat fitted curve, though single readings scatter; tested in HEK293 cells; also: % is scaled to controls: 0 for no effect and ±100 for the full control effect; nearly all actives have a fitted effect of over 50% in size; luciferase read-out
2A StopGo = High Throughput Screening for Foot and Mouth Disease Virus Antivirals. human cells with a luciferase reporter of 2A StopGo recoding; control for the full effect not named in the record. Potency, µM (series often up to 57.9 µM), for inactives: at the top dose signal change, negative = less light. hit rate 1.2% among 410,000; active = well fitted falling curve with a large enough effect; inconclusive = small, poorly fitted or top-dose-only effect; inactive = no such curve, though single readings can be large or run the other way; tested in HEK293T cells; also: % is scaled to controls: 0 for no effect and ±100 for the full control effect; nearly all actives have a fitted effect of over 45% in size; luciferase light after 4 h
NS1 function inh = qHTS Assay for Inhibitors of Influenza NS1 Protein Function; Potency, µM (titrated, usually from 46.1 µM), for the others: top-dose activity, positive = more growth; S. cerevisiae slowed by influenza A NS1, growth recovery by OD600; AID 2326, 2010; hit rate 0.4% among 270,000; active means well fitted rising curve with a large enough effect; inconclusive means small, poorly fitted or top-dose-only effect; inactive means no such curve, though single readings can be large or run the other way; also: nearly all actives have a fitted effect of over 50% in size
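Compounds were scored for reversing the slow growth caused by influenza A NS1 in S. cerevisiae, measured by optical density at 600 nm. Assay medium contained 2% galactose at pH 6.0; NS1-free yeast of the same strain were the positive control.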
SARS PLP yeast = qHTS of Yeast-based Assay for SARS-CoV PLP; S. cerevisiae expressing SARS-CoV PLpro, growth rescue; control for the full effect not named in the record; Potency, µM (highest dose often 32.9 µM), inactives show top-dose activity, positive = growth rescue; hit rate 0.19% among 330,000; active means well fitted rising curve with a large enough effect; inconclusive means small, poorly fitted or top-dose-only effect; inactive means no such curve, though single readings can be large or run the other way; also: 0% is about no effect; nearly all actives have a fitted effect of over 55% in size; growth read by luminescence after 48 h
Cruzain Triton = qHTS Assay for Promiscuous and Specific Inhibitors of Cruzain (with detergent); Potency, µM, inactives show max response, negative = inhibition, most hits filed as inhibitors; purified cruzain, Z-FR-AMC fluorescence, 0.01% Triton; AID 1478, 2009; hit rate 0.43% among 200,000; Cruzipain (Trypanosoma cruzi), P25779;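 also: plate controls were neutral wells for no effect and buffer without enzyme for full effect; nearly all actives have a fitted effect of over 40% in size; top concentration of the series not given in the record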
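Steps: dispense cruzain (1.5 nM final) in acetate buffer pH 5.5 with DTT and 0.01% Triton X-100; pin-transfer compounds; incubate 15 min RT; add Z-FR-AMC (2 uM final); read fluorescence every 30 s, using the 60 s intensity change.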
Starred values were filed as active, the others as inactive; ? = inconclusive; . = no result given; & = joins results of further samples; [ ] = dose if it differs, or a comment. Unless noted, calls follow the shape of the dose curve; as a rule, active = well fitted curve in the direction sought with a large enough effect; inconclusive = small, poorly fitted or top-dose-only effect, or another doubt; inactive = no such curve, though single readings can be large; an effect the other way counts as inactive or inconclusive. Potency is read from the fitted curve at half-maximal effect.

SMILES	RE007 growth inh	MARV entry inh	Cruzain noTriton	Lassa entry inh	2A StopGo	NS1 function inh	SARS PLP yeast	Cruzain Triton
CCC(=O)N1CCc2cc(Br)cc(S(=O)(=O)N3CCCC(C(=O)NCc4ccc(OC)cc4)C3)c21 (stereo not drawn)	.	.	-13%	0%[46.1 µM]	-26%	.	.	-3.6%
Cn1c(=O)c2[nH]c(=O)cnc2n(C)c1=S	3%	-2%	.	16%	?	-33%	27%	.
COc1ccccc1NC(=S)N(CCc1nc2cc(C)c(C)cc2[nH]1)Cc1cccnc1	1%	?	-1%	-1%	.	-18%	-7%	3.3%
Cc1c(C)[n+](=O)c2c(n1[O-])CCC2	-3%	19%	-3%	16%	-3%	-7%	-2%	-1.5%
Cc1ccc(S(=O)(=O)N2CCN(C(=O)N3CCOCC3)C2c2ccc(N(C)C)cc2)cc1 (stereo not drawn)	-2%	-21%&-21%	-16%	?	-7%	-54%	-4%	-8.0%
Cc1cc(NC(=O)c2ccccc2F)n(-c2nc3ccccc3[nH]2)n1	18%	-19%	1%	0%	5%	-3%	2%	5.7%
O=C(CN1C(=O)c2ccccc2S1(=O)=O)c1ccc(O)c(O)c1	2%	?	.	?	23%	1%	1%	.
COc1ccc(-c2csc(NC(=O)c3cc(-c4cccs4)nc4ccccc34)n2)c(OC)c1	-4%	22%	5µM*	-4%	-22%	26%	-8%	1.9%
CCOc1cc(C(=O)N/N=C\c2cn(CC)nc2C)cc(OCC)c1OCC	-19%	-23%	?	?	-8%	5%	16%	-5.9%
C=CCn1c(O)c(C(CC)=Nc2ccc3c(c2)CCC3)c(=O)[nH]c1=O	11%	9%	.	0.89µM*	?	-9%	4%	.
CCC(C)c1ccccc1N1CC(C(=O)N(C)CC(=O)Nc2cccc(F)c2)CC1=O (stereo not drawn)	14%	-1%[46.1 µM]	.	-17%	8%	.	-4%	.
COc1cc(S(=O)(=O)Nc2cccc(C)c2)ccc1N=Cc1c(C)[nH]n(-c2ccccc2)c1=O	.	-25%	-6%	-23%	.	11%	-5%	-3.0%
CC(NCCOc1ccccc1F)C(=O)Nc1ccc(S(N)(=O)=O)cc1 (stereo not drawn)	3%	.	.	.	4%	0%	3%	.
COc1ccccc1CNS(=O)(=O)c1cc(C(=O)Nc2cccc(C(F)(F)F)c2)ccc1F	.	.	12%	?	-24%	.	.	-10.0%
O=C(/C=C/Nc1cccc(C(F)(F)F)c1)c1ccco1	4%	?	.	?	8%	-6%	-2%	.
Cc1c(-n2c(SCC(=O)O)nnc2-c2ccccc2Cl)c(=O)n(-c2ccccc2)n1C	2%	?	-1%	6%	-15%	4%	5%	-0.3%
Cc1cc(OCc2ccc(C(=O)Nc3ccc(C(=O)O)cc3)o2)ccc1Cl	-8%	?	.	?	11%	5%	-1%	.
COc1ccc(CNC(=O)CCc2c(C)c3cc4c(C)c(C)oc4cc3oc2=O)cc1OC	.	26%[46.1 µM]	-4%	5%[46.1 µM]	16%	.	.	-0.9%
COc1cccc(Cn2c(=O)n(-c3ccc(Br)cc3F)c(=O)c3sc4ccccc4c32)c1	.	11%[46.1 µM]	13µM*	-20%[46.1 µM]	-13%	.	.	-4.8%
CCOC(=O)C1CCN(C(=O)C2CCN(S(=O)(=O)c3cccc4cccnc34)CC2)CC1	.	.	2%	.	.	-11%	-4%	-2.9%
CC(=O)C1=C(C)Nc2ncnn2C1c1ccc(F)cc1 (stereo not drawn)	-12%	.	.	.	-4%	23%	0%	.
Cc1cc(S(=O)(=O)NC(C)c2nnc3ccccn23)ccc1Br (stereo not drawn)	1%	17%	.	-15%	16%	.	6%	.
CCCn1nc(NC(=O)c2ccco2)c2cc3cc(C)ccc3nc21	-7%	.	.	.	4%	-3%	-3%	.
COc1ccc(C2N(c3cc(C)on3)C(=O)C3CCCN32)cc1 (stereo not drawn)	-5%	11%[46.1 µM]	.	15%[46.1 µM]	45%[activator]	6%	0%	.
Cn1cnnc1SCc1ccc(C(=O)N/N=C(/CCC(=O)O)c2ccc(C(C)(C)C)cc2)cc1	24%	11%	.	?	12%	.	.	.
CCNC(=O)NC(=O)CSc1nc2ccccc2n1CCOC	-13%	8%	-5%	7%	-15%	3%	?	1.5%
Cc1ccc(NC(=O)CCN2C(=O)c3ccccc3S2(=O)=O)cc1C	14%	23%	.	-20%	13%	.	-4%	.
O=C(Nn1cnc2ccccc2c1=O)c1cccc(Cl)c1	2%	2%[46.1 µM]	.	17%	55%[activator]	.	0%	.
CCOCCCNC(=O)c1ccc(Cn2c(=S)[nH]c3c([nH]c4ccc(OC)cc43)c2=O)cc1	13%	28%	.	10%	-9%	.	-2%	.
COc1cc(C(=O)c2nccc3cc(OC)c(OC)cc23)c([N+](=O)[O-])cc1OC	5%	-14%[46.1 µM]	.	8%	-23%	.	1%	.
CN(C)/C=C/C(=O)c1ccc(F)cc1F	12%	.	.	.	2%	7%	-1%	.
CCN(CC)S(=O)(=O)c1ccc2c(c1)N(CC(=O)N1CCN(c3ccccc3F)CC1)C(=O)CO2	.	?	-16%	-1%[46.1 µM]	-17%	.	.	-0.1%
COC(=O)c1ccc(/C=N/N2CCN(Cc3ccccc3)CC2)cc1	-8%	?	-6%	2%	?	9%	5%	1.4%
CCOC(=O)C1CCN(C(=O)CCNC(=O)c2cc(OC)c(OC)c(OC)c2)CC1	0%	15%	5%	9%	14%	2%	5%	0.8%
CCOC(=O)C1=C(O)CCn2c1nc1ccccc12	-1%	24%	-10%	-6%	-12%	-8%	7%	-1.2%
CNC(=O)Nc1cc(NC(=O)NC)cc(C(F)(F)F)c1	10%	18%	.	-3%	12%	3%	1%	.
Cc1cc(C(=O)CSc2nnnn2C)c(C)n1CCc1ccc(F)cc1	-4%	2%	25µM*	8%	0%	-2%	1%	6.2%
CCS(=O)(=O)N1CCC(C(=O)Oc2ccccc2OC)CC1	2%	.	.	.	-1%	10%	3%	.
COc1ccccc1/C=C(/C(=O)OCC(=O)N(C)Cc1ccccc1)c1ccccc1	13%	-5%	9%	?	-16%	7%	17%	-8.9%
CCOc1ccc(C2C(C#N)=C(N)Oc3n[nH]c(C)c32)cc1OC(=O)C1CC1 (stereo not drawn)	-2%	-2%	?	12%	-4%	8%	-1%	2.9%
COC(=O)c1ccccc1NC(=O)CCS(=O)(=O)c1cc2c(cc1C)NC(=O)CO2	-1%	.	.	.	-10%	-2%	-2%	.
NC(=O)Cn1c(=O)n(C2CCCCC2)c(=O)c2c3c(sc21)CCCCC3	10%	2%	16%	4%	-14%	7%	4%	0.2%
O=C(NCc1ccc(OC(F)(F)F)cc1)C1CC(c2c(Cl)cccc2Cl)=NO1 (stereo not drawn)	5%	.	5%	.	-12%	1%	-2%	-8.9%
O=C(O)c1ccccc1-c1ccccc1C(=O)Nc1ccc(F)cc1	-1%	1%	.	-16%	-11%	1%	1%	.
O=c1[nH]c2ccc(Cl)cc2c(=O)n1Cc1ccco1	-15%	?	0%	0%	13%	3%	-1%	13%
COc1ccc(CN2CCNC(=O)C2CC(=O)N(C)Cc2ccon2)c(F)c1 (stereo not drawn)	7%	30%	.	15%	-13%	4%	23%	.
CCOc1cc(S(=O)(=O)N2CCN(CC)CC2)ccc1Cl	10%	-19%[46.1 µM]	-18%	5%	-10%	-7%	6%	1.7%
CCc1ccc(NC(=O)C2CCN(S(=O)(=O)c3c(C)[nH]c(=O)[nH]c3=O)CC2)cc1	-1%	6%	-5%	-11%	9%	5%	2%	-0.2%
O=C1NC(=O)/C(=C\c2cn(CC(=O)N3CCOCC3)c3ccccc23)S1	4%	3%[46.1 µM]	.	11%[46.1 µM]	-10%	6%	-1%	.
NS(=O)(=O)c1ccc(Sc2nc3ccccc3s2)c([N+](=O)[O-])c1	-8%	?	.	-8%	?	8%	1%	.
COc1ccc(-c2cc3nc(C)cc(NCCO)n3n2)cc1	-7%	11%	2%	?	.	-4%	-2%	-2.5%
Cn1ccnc1C(=O)c1cc(SCC(=O)NC2CC2)nc2ccccc12	12%	16%[46.1 µM]	.	-5%[46.1 µM]	-8%	.	-4%	.
O=C(COc1ccc(F)c(Cl)c1)Nc1ccc(N2CCOCC2)cc1	4%	2%[46.1 µM]	.	17%[46.1 µM]	-1%	.	-2%	.
COc1ccc2nc(SCCOC(=O)Nc3ccc(Cl)cc3)nc(C)c2c1	-28%	-17%	12%	7%	0%	0%	-47%	-4.3%
Cc1ccc(C)c(-n2c3nc(=O)[nH]c(=O)c-3cc3cc([N+](=O)[O-])ccc32)c1	2%	?	12%	3.2µM*	28µM*	5%	14%	-6.7%
O=C(CN1CCN(C/C=C/c2ccccc2)CC1)Nc1cc([N+](=O)[O-])ccc1Cl	.	17%	12%	0%	-4%	-33%	-6%	1.8%
COc1ccc(NC(=O)c2cccc(S(=O)(=O)N3CCCC3)c2)cc1OC	2%	-3%	.	19%	-16%	.	1%	.
CC(CCN1C(Nc2ccccc2)=NC[C@@H]1Cc1ccccc1)c1ccccc1 (stereo partly drawn)	-9%	.	.	.	-7%	10%	-6%	.
CSc1nc(-c2ccccc2)nn1C(=O)c1ccco1	-4%	17%	1%	6%	18%	1%	1%	1.5%
COc1ccc(NC(=O)CN2CCN(c3ccccc3Cl)CC2)cc1	-3%	8%	0%	-26%	-14%	-14%	1%	-0.5%
Cc1ccc2c(c1)N(C(=O)N1CCC(C(=O)NCCc3ccc(Cl)cc3)CC1)CC(C)O2 (stereo not drawn)	.	.	2%	9%[46.1 µM]	0%	.	.	-3.9%
Cc1ccc(C(=O)NCCN2CCOCC2)cc1C	5%	14%[46.1 µM]	.	10%[46.1 µM]	5%	-1%	4%	.
